# Calb biofilm kill = mixture kills Candida albicans biofilm cells. hit rate 0.02% among 120,000. AID 1242. C. albicans biofilm persisters + clotrimazole, fluorescence viability; primary screen in compound mixtures of four per well. inhibition, % at 7.6 µM;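 active = inhibition above 30.3% in the primary screen of four-compound pools, then above 30% when the compound was retested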;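 note: compounds exposed to preformed 24 h biofilms for 48 h; the number belongs to the whole pool; some results filed as inactive read as strong as hits; inactives centre near 12; 0% = biofilm with clotrimazole alone and 100% = kill control; retested singly at about 60 µM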
#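 Incubation: 24 h biofilm formation, then 48 h compound exposure, 37 °C | Material: C. albicans biofilms | Buffer or medium: RPMI/MOPS medium, pH 7.0 | Measured by: 2-h Alamar Blue fluorescence, 535/590 nm excitation/emission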
# An asterisk follows results filed as active.
SMILES,Calb biofilm kill
O=C(OCC1CC(c2ccccc2)=NO1)c1ccc(Br)cc1 (stereo unspecified),21.4
O=C(Nc1ccc(Br)cc1)c1cccnc1N1CCOCC1,-8.2
CCOc1ccccc1CN1CCN(CCCn2cccn2)CC1CCO (stereo unspecified),13.4
C=CCSc1n[nH]c(-c2cccs2)n1,27.5
O=C(NN1CCOCC1)c1cc(-c2ccc(Br)s2)nc2ccccc12,10.9
N#CC1(C#N)C(C(N)=O)C1c1ccccc1 (stereo unspecified),9.5
Cc1ccnc(NC(=O)c2cc3c(=O)oc4ccc(C)cc4c3s2)c1,10.9
Cc1[nH]c2ccccc2c1C(=O)COC(=O)c1ccc[n+]([O-])c1,1.6
Cc1ccc(-n2ncc3c(=O)n(CC(=O)N4CCN(c5ccccc5)CC4)cnc32)cc1,8.8
COc1cccc(NC(=O)/C=C/c2ccc([N+](=O)[O-])cc2)c1,16.5
COc1cc(/C=N/NC(=O)c2ccc(=O)[nH]n2)ccc1O,20.3
CC1=CCC2C(=O)N(c3ccc(N4CCOCC4)cc3)C(=O)C2C1 (stereo unspecified),9.2
O=C(Nc1ccccc1F)Nc1ccccc1OC(F)F,22.0
COc1ccccc1-c1noc(CSc2nc(C)cc(=O)[nH]2)n1,14.5
CCOC(=O)N1CCN(C(=O)/C(=C/c2ccc(OC)c(OC)c2)NC(=O)c2ccccc2)CC1,27.4
COc1ccc(-c2csc(=Nc3ccccc3)n2CCO)cc1,15.7
CCCc1cc(-c2nc(N)ncc2-c2csc(C)n2)c(O)cc1OC,-5.0
CC(C)C(=O)Nc1cccc(NC(=O)c2ccc([N+](=O)[O-])cc2Cl)c1,15.1
CC(C)(C)NC(=O)COC(=O)c1ccccc1OCC(=O)Nc1ccc(Br)cc1,14.9
COCCCn1c(SCC(=O)NC(C)(C)C)nnc1-c1cccs1,9.0
COc1ccc(NC(=S)N2c3ccccc3CC2C)cc1OC (stereo unspecified),9.5
C/C(=N\NC(=O)c1nn(C)c(C)c1Br)c1cccc(NC(=O)c2ccoc2C)c1,13.2
CCOC(=O)/C(C#N)=C/c1c(Oc2cccc(C)c2)nc2ccccn2c1=O,26.6
C=C(C)c1cccc(C(C)(C)NC(=O)NC2CC(C)(C)NC(C)(C)C2)c1,14.7
CCOC(=O)/C(C#N)=C/c1cc2ccccc2nc1N1CCCCC1,8.9
CCN(CC)CCNCC(O)(c1ccc(Cl)cc1)c1ccc(Cl)cc1,10.4
Cc1cc(C)cc(OCC(=O)N/N=C/c2ccc([N+](=O)[O-])o2)c1,12.2
COc1ccc(CCN(CC(=O)NC2CCCC2)C(=O)Cn2nnc(-c3ccc(C)o3)n2)cc1OC,16.4
CC(=O)C(Sc1nc(-c2ccc(F)cc2)nc2c1c(=O)n(C)c(=O)n2C)C(C)=O,13.9
CCN1C(=O)C(CC(=O)Nc2ccc(OC)cc2)N(Cc2ccc3c(c2)OCO3)C1=S (stereo unspecified),6.0
CC1(C)Cc2ccccc2-c2nc3n(c(=O)c21)CCCS3,19.3
Nc1cccc(CN2CCCC2)c1,16.7
CCOc1ccc(NC(=O)CC2C(=O)N(c3ccccc3)C(=O)N2CCOC)cc1 (stereo unspecified),-4.2
COc1cccc2cc(C(=O)C3=C(O)C(=O)N(CCN4CCOCC4)C3c3ccc(Cl)cc3)oc12 (stereo unspecified),13.4
COc1ccccc1OCCC(=O)OCC(=O)Nc1cc(S(=O)(=O)N2CCOCC2)ccc1Cl,8.1
Cc1ccc(S(=O)(=O)N(Cc2n[nH]c(=S)n2-c2ccccc2)c2ccccc2)cc1,10.8
COc1ccc(Cn2c(=O)[nH]c3cc(C(=O)NC4CCN(Cc5ccccc5)CC4)ccc32)cc1,19.2
O=C(C1=C[C@H](c2csc3ccccc23)C[C@H](OCc2ccc(CO)cc2)O1)N1CCOCC1,14.3
Cc1cc(N/N=C\c2ccc(Br)cc2)nc(-n2nc(C)cc2C)n1,12.4
O=C(CSc1ccccc1)N1CCN(c2ccccn2)CC1,7.9
O=C(Nc1nnc(SCc2ccc(F)cc2)s1)c1cccnc1Cl,1.0
O=C(CNC(=S)N(Cc1ccc(F)cc1)C1CCCCC1)NCC1CCCO1 (stereo unspecified),3.6
Cc1nc2ccc(NC(=S)NC3CC3)cc2nc1C,12.4
N#Cc1ccc(/C=N/NC(=O)c2ccccc2F)cc1,23.5
COc1ccccc1N/C(=N/S(=O)(=O)c1ccc(C)cc1)c1ccccc1,16.3
COc1cccc(NC(=S)NC(C)c2ccc(OC)c(OC)c2)c1 (stereo unspecified),8.5
CCCCCCCCC(=O)N/N=C(\C)c1ccco1,12.7
S=C(NCC1CCCO1)Nc1ccc(Cl)cc1 (stereo unspecified),11.5
COc1ccc(CN(C)CC(=O)Nc2ccccc2-c2ccccc2)c(OC)c1,19.5
O=C1c2ccccc2NC(c2ccc(-c3cccc([N+](=O)[O-])c3)o2)N1O (stereo unspecified),7.6
# The list continues.
SMILES,Calb biofilm kill
CSCC[C@H](NC(=O)C1CCN(S(=O)(=O)c2ccc(C)cc2)CC1)C(=O)NC1CCS(=O)(=O)C1 (stereo partly specified),7.9
Cc1ccc(Cl)cc1NC(=O)CCCN1C(=O)c2cccnc2C1=O,8.6
CC(=O)Nc1sc(N/N=C/c2ccc(N(C)C)cc2)nc1-c1ccc(C)cc1,0.9
Cc1cccn2c(=O)c(/C=C(\C#N)C(=O)NCc3ccccc3)c(N3CCC(C(N)=O)CC3)nc12,23.4
O=C(CN1C(=O)C2C3C=CC(C3)C2C1=O)NCc1ccco1 (stereo unspecified),18.3
Cc1ccc(NC(=O)COC(=O)C2CC(=O)N(Cc3ccccc3)C2)cc1S(=O)(=O)N(C)C (stereo unspecified),6.7
C/C(=N\NC(=O)c1nc2ccccn2c1C)c1cc2ccccc2o1,5.7
Cc1ccc(OCCCCN2CCC(C)CC2)c(Br)c1,3.4
CSCCCNC(=O)c1ccc(OC2CCN(C(=O)c3cccnc3)CC2)cc1,27.6
CCNc1cc(S(=O)(=O)C(F)(F)F)ccc1N,19.1

# Five entries from above, tab-delimited.
canonical_smiles	Calb biofilm kill
CSCC[C@H](NC(=O)C1CCN(S(=O)(=O)c2ccc(C)cc2)CC1)C(=O)NC1CCS(=O)(=O)C1 (stereo partly specified)	7.9
Cc1ccc(Cl)cc1NC(=O)CCCN1C(=O)c2cccnc2C1=O	8.6
CC(=O)Nc1sc(N/N=C/c2ccc(N(C)C)cc2)nc1-c1ccc(C)cc1	0.9
Cc1cccn2c(=O)c(/C=C(\C#N)C(=O)NCc3ccccc3)c(N3CCC(C(N)=O)CC3)nc12	23.4
O=C(CN1C(=O)C2C3C=CC(C3)C2C1=O)NCc1ccco1 (stereo unspecified)	18.3

# New compounds follow.
SMILES,Calb biofilm kill
Cc1ccc(CSc2nccc(-c3c(C)nc4ccccn34)n2)cc1,13.7
COc1cc(NC(=O)c2cc([N+](=O)[O-])ccc2Br)ccc1NC(=O)c1ccco1,10.7
Cn1c(N)c(C(=O)COC(=O)CCc2ccccc2)c(=O)n(C)c1=O,15.7
CCOc1ccccc1-c1nc(CN(Cc2cnn(C)c2)C(C)C)c(C)o1,0.1
Cc1cc(NC(=O)CSc2nnc(C)n2-c2ccccc2C)no1,13.1
CC(=O)c1c(C)[nH]c(C(=O)COC(=O)c2ccc3c(=O)n4c(nc3c2)CCC4)c1C,15.9
COc1ccc(CCNS(=O)(=O)c2c(N)n(C)c(=O)n(C)c2=O)cc1OC,22.6
Cc1ccc(NS(=O)(=O)c2cccc3nsnc23)cc1,21.0
CC(=O)c1ccc(NC(=O)c2ccc(C)c(Br)c2)cc1,26.4
NS(=O)(=O)c1ccc(NC(=S)Nc2ccc(OCc3ccccc3)cc2)cc1,19.0
O=[N+]([O-])c1ccc(N2CCN(Cc3ccccc3)CC2)nc1,5.5
COc1ccccc1NC(=O)CC1C(=O)Nc2ccccc2N1C(=O)c1ccccc1 (stereo unspecified),5.0
COCCCNc1nc2nonc2nc1NCCSC,18.1
Cc1ccc(NC(=O)NC2CCCCC2)c(C)c1,4.7
CC(CN1CCCCC1)OC(=O)CCc1ccccc1 (stereo unspecified),15.2
N/C(=N\OC(=O)Cc1ccc(-c2ccccc2)cc1)c1ccncc1,0.4
CCN(CC)CCN(Cc1cc2ccc(C)cc2[nH]c1=O)C(=S)Nc1ccccc1C(=O)OC,6.8
COC(=O)/C(=C1/Oc2ccc(C(C)(C)C)cc2S1)C(F)(F)F,10.1
Cc1ccc(NC(=O)CCNC(=O)c2ccc(Cl)cc2)cc1F,17.8
Cc1ccc(C(=O)Nc2cccc(C(F)(F)F)c2)cc1NC(=O)c1nccnc1N,10.9
CC12CCC(C(=O)Nc3ccccc3)(C(Br)C1=O)C2(C)C (stereo unspecified),8.0
COc1ccc(SC[C@H](CC(C)C)N2CCN(CCc3ccccc3)CCC2=O)cc1,13.4
CC(=O)NC1(c2ccccc2)CCN(CC(=O)N2CCC(C)CC2)CC1,23.5
O=C(CN1C(=O)/C(=C\c2ccccc2F)SC1=S)Nc1nc2ccccc2s1,-1.9
Cc1nnc(NC(=O)CSc2ccc(-c3ccco3)nn2)s1,9.3
COc1cc(/C=N/N=C(/C(=O)c2ccccc2)c2ccccc2)cc(OC)c1O,24.4
CCOc1ccccc1/C=N/NC(=O)c1cccc(S(=O)(=O)N(CC)CC)c1,4.2
Cc1ccc(C(=O)O/N=C(\N)c2ccccc2)c(Cl)c1,11.4
COCCCNC(=O)c1ccc2c3c(onc13)-c1ccccc1C2=O,29.2
Cc1cc2ccccn2c1C(=O)Nc1ccc(Cl)cc1,7.6

# In a second layout: results already given
smiles: O=C(CN1C(=O)/C(=C\c2ccccc2F)SC1=S)Nc1nc2ccccc2s1
  Calb biofilm kill: -1.9

smiles: Cc1nnc(NC(=O)CSc2ccc(-c3ccco3)nn2)s1
  Calb biofilm kill: 9.3

smiles: COc1cc(/C=N/N=C(/C(=O)c2ccccc2)c2ccccc2)cc(OC)c1O
  Calb biofilm kill: 24.4

# The list goes on.
SMILES,Calb biofilm kill
COC(=O)c1[nH]c2ccc(F)cc2c1NS(=O)(=O)c1ccc(F)c(C)c1,13.9
CC(C)C(=O)NNS(=O)(=O)c1ccccc1[N+](=O)[O-],18.9
COc1cc(CC(=O)OCC(=O)Nc2cc([N+](=O)[O-])ccc2F)cc(OC)c1OC,11.5
CN1CCN(C(=S)c2cn(CCOc3ccccc3F)c3ccccc23)CC1,52.8
Cc1cccc(NC(=O)CCC(=O)NCCO)c1,4.4
CCN(CC)c1ccc(N=Cc2ccc([N+](=O)[O-])o2)cc1,16.2
CCOc1ccc(CN2CCN(Cc3cccc4c3OCO4)CC2CCO)cc1 (stereo unspecified),8.3
COC(=O)c1sccc1NC(=O)Cn1nnc(-c2ccccc2C)n1,15.2
Cc1oc(-c2ccc(-c3ccccc3)cc2)nc1CN1CCN(CC(=O)N(C)C)CC1,19.3
COc1cccc(CN(C)CC(=O)NCc2ccccc2Cl)c1OC,8.9
CCOC(=O)/C=c1\s/c(=C\c2ccc3cc(OC)ccc3c2)c(=O)n1CC(=O)NCc1ccc2c(c1)OCO2,17.4
CCNC(=O)COC(=O)c1cc(C)n(-c2ccccc2)c1C,15.7
O=C1NCCN(Cc2ccoc2)C1CC(=O)N(CCO)Cc1ccccc1 (stereo unspecified),-3.4
O=[N+]([O-])c1cccc(Nc2nc(Cl)nc(Cl)n2)c1,4.6
COCCN(C(=O)CSc1nnc(C)n1Cc1ccccc1)c1c(N)n(CC(C)C)c(=O)[nH]c1=O,15.8
CC(C)NC(=O)NC(=O)COc1ccc(Br)cc1Br,2.7
CCCC(=O)Nc1ccc2c(c1)COC2=O,29.0
C[C@H](NC(=O)c1ccccc1Cl)C(=O)OCCOc1cccc(Cl)c1,5.9
CC(=O)N1CCN(c2ccc(S(=O)(=O)NCCN(C(C)C)C(C)C)cc2[N+](=O)[O-])CC1,7.9
COc1cccc(C(=O)OCC(=O)Nc2cc(C)c(C)cc2[N+](=O)[O-])c1,-6.0
CNc1ccc([N+](=O)[O-])cc1-c1nc2ccccc2[nH]c1=O,15.2
CP(C)(=O)CCP(=O)(c1ccccc1)c1ccccc1,8.6
COc1cccc(NC(=O)C(=O)N2CCOCC2)c1,9.6
NC(=O)C1(c2ccccc2)CCC(=O)N1c1ccccc1 (stereo unspecified),21.0
Cc1ccc(S(=O)(=O)N(CC(=O)Nc2ccc(Cl)c([N+](=O)[O-])c2)C2CCCCC2)cc1,16.9
O=C(O)c1ccc2c(=O)n3c(nc2c1)/C(=C/c1cccc(Cl)c1Cl)CCCC3,18.7
COc1ccc2c(=O)c(-c3ccccc3)coc2c1,24.7
COc1cc2ccccc2cc1C(=O)NC(=S)Nc1nnn(C)n1,4.9
O=C(Nc1ncnc2sc3c(c12)CCCC3)c1ccncc1,9.9
CCN1CCN(c2cc(=O)n(Cc3ccc(F)cc3)c(=O)[nH]2)CC1,13.0
Cc1cc(C)cc(OCC(=O)NNC(=O)CN2C(=O)c3ccccc3C2=O)c1,4.6
CCOC(=O)c1cc2c(n(-c3ccc(Cl)cc3)c1=O)CCCC2=O,6.5
NC(N)=N/N=C/c1ccc(Br)cc1,17.9
Cc1cccc(NC(=O)Cn2cc([N+](=O)[O-])cn2)n1,-10.8
CC(C)COP(=O)(c1ccc(N(C)C)cc1)C(O)c1cccnc1 (stereo unspecified),16.8
CCCc1nc2sc3c(=O)n(N)cnc3c2c2c1CCCC2,21.0
Cn1c(=O)c2c(-c3cccc(Br)c3)c(C#N)c(N)nc2n(C)c1=O,15.2
CN(Cc1ccccc1)c1cc(Cl)nc(N)n1,7.9
O=C(Nc1ccncc1)c1cccc2ccccc12,12.6
Cc1onc(-c2ccccc2)c1C(=O)NNC(=S)NC(=O)/C=C/c1cccs1,12.5
O=C(Nc1cnc2ccccn2c1=O)c1ccc(Cl)cc1Cl,9.9
CC1CCN(S(=O)(=O)N2CCC(C(=O)NCc3ccc4c(c3)OCO4)CC2)CC1,8.4
COC(=O)c1ccc(S(=O)(=O)N2CCCN(Cc3ccccc3)CC2)n1C,15.7
CCCCCC(=O)NC(=S)Nc1cccc(-c2nc3ncccc3o2)c1,9.5
Cc1cc(C=O)c(C)n1-c1sc2c(c1C(=O)O)CCCC2,16.4

# Assay outcomes from PubChem BioAssay.

# This is a subset (hit frequency here may not be typical).
